RN4220 kill = growth inhibition of S. aureus RN4220, primary screen, OD600; 16 h; inhibition, % (concentration not given with the values); 330,000 tested, 0.33% active;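 active means z-score of -3 or lower and OD600 up to 0.18 on both plates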;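 further: plate controls were untreated cells for no effect and reference antibiotic for full effect; stock transfer was 100 nL into about 80 µL; one replicate is shown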
BJeLR lethal = MLPCN primary cell-based screen for lethality selective to Ras in HRASV12 cells | BJeLR (HRASV12) viability, CellTiter-Glo ATP luminescence, 48 h; reference of the scale not given here | inhibition, % (test concentration not listed) | 300,000 tested, 0.17% active;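 active means replicate mean above 50%; inconclusive means above 50% but judged a plate artefact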;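 further: 50 nL library stock added to about 25 µL; numbers are from one replicate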
Mtb hypoxia inh = PubChem AID 1159583. M. tuberculosis hypoxia-regulated fluorescent reporter, fluorescence. fluorescence inhibition, % (test concentration not listed). 300,000 tested, 0.1% active;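 active means 35 to 45% if threefold the growth effect, above 45% if 1.5-fold the growth effect; inactive means the rest, general growth blockers included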;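 further: wells of about 50 µL received 100 nL stock; 0% = vehicle wells and 100% = reference inhibitor wells; whole bacteria with a GFP reporter of the hypoxia response; strong numbers were not always called active; many hits fall short of the cut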
Sa ugtP lethal = growth inhibition of ugtP-null S. aureus, primary screen, RN4220 ugtP deletion, OD600; 16 h; some inactives read as strong as hits; growth inhibition, % (concentration not given with the values); 330,000 tested, 0.54% active;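 active means z-score under -3 and OD600 up to 0.15 on both plates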;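 further: plate controls were untreated wells for no effect and antibiotic for full effect; wells of about 80 µL received 100 nL stock; the first replicate is given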
Autofluor counter = compound fluorescence in toxin protease inhibitor counterscreen | compound autofluorescence counterscreen, microsphere flow cytometry; hits give high values | fluorescence intensity (test concentration not listed) | 360,000 tested, 3.1% active | AID 624483;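 active means at least 3 SD above the mean of all compounds, about 16000 in these data; inconclusive means too few beads counted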;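 further: 100 nL of 1 mM stock went into each well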
PrP 5UTR inh = inhibition of PrP 5' UTR reporter expression | inhibition, % (concentration not given with the values) | cell-based PrP 5' UTR mRNA reporter, plate reader | 340,000 tested, 0.35% active;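 active means every replicate at 50% or more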;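 further: 0 = median of the neutral control wells; tested in H4 reporter cells; numbers are from one replicate; inactives centre near -14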
Mtb hypoxia inh growth = second read-out of Mtb hypoxia inh, no call of its own (marks repeat the call); growth inhibition, %; measured here: M. tuberculosis growth (absorbance);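 0% = vehicle and 100% = reference antibiotic; read after six days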
Active calls of the source: *; ? = inconclusive; . = not tested or not shown.

Each structure is followed by: RN4220 kill	BJeLR lethal	Mtb hypoxia inh	Mtb hypoxia inh growth	Sa ugtP lethal	Autofluor counter	PrP 5UTR inh
(1) OC(COc1ccc2ccccc2c1)Cn1cncn1 (stereo not drawn)
    -1.0	-2.3	.	.	2.5	3329	-13.0
(2) CCOc1ccc2c(c1)c(C(C)=O)c(C)n2Cc1ccco1
    16.4	-0.3	9.3	8.9	9.5	4368	-9.7
(3) COc1ccccc1/C=C/C=N/NC(=O)c1ccco1
    .	3.8	.	.	.	3511	-56.5
(4) Cc1ccc(C(=O)N/N=C/c2sc(=O)n(Cc3cccc(C(=O)O)c3)c2Cl)cc1
    .	-3.5	.	.	.	?	-16.7
(5) CCOc1cc(/C=C2\SC(=S)N(NS(=O)(=O)c3ccc(C)cc3)C2=O)ccc1O
    85.3*	-6.3	5.5	2.6	73.1	3301	-10.8
(6) COc1ccc2oc(C(=O)OCC(=O)Nc3cccc(S(=O)(=O)N4CCOCC4)c3)c(C)c2c1
    3.1	1.7	3.4	2.0	14.0	4678	-26.2
(7) CCOC(=O)c1c[nH]c2ccc([N+](=O)[O-])cc12
    3.4	.	1.2	14.4	-10.8	3772	-13.5
(8) O=C(COc1ccccc1)Nc1nc(-c2cccs2)cs1
    -0.6	7.6	1.8	5.0	-13.7	3066	-8.7
(9) Cc1ccc(C2SCC(C(=O)O)N2C(=O)c2ccc(F)cc2)cc1 (stereo not drawn)
    4.0	10.1	6.9	3.8	-1.3	9040	-10.7
(10) Cc1nc(-c2ccc(S(=O)(=O)Nc3ccc(Br)cc3Cl)s2)cs1
    96.2*	0.6	-9.0	-5.0	83.3	5867	-16.2
(11) Cc1csc(NC(=O)C2CCCN2C(=O)Oc2ccccc2)n1 (stereo not drawn)
    6.1	-5.0	7.9	5.3	-7.9	22986*	-14.8
(12) Cc1nn2cnc3sc4c(c3c2nc1=O)CCCC4
    1.8	-0.9	-2.9	2.8	-10.9	3200	-18.3
(13) O=C(Nc1nnc(SCCC2OCCO2)s1)C1CC(=O)N(c2ccccc2)C1 (stereo not drawn)
    -1.9	-0.3	-16.7	1.9	1.8	?	4.0
(14) O=C(c1ccco1)N1CCN(Cc2nc(Cc3ccccc3)no2)CC1
    1.6	-5.9	8.3	-2.4	8.2	4715	-4.8
(15) COc1ccc(S(=O)(=O)NNC(N)=S)cc1
    4.4	8.1	7.6	1.6	0.5	2241	-20.9
(16) CCCCn1c(N)c(N(CCOC)C(=O)c2cc(S(=O)(=O)N3CCOCC3)ccc2Cl)c(=O)[nH]c1=O
    4.3	.	6.8	3.8	6.9	3929	-8.3
(17) COc1ccc(NC(=O)NC(C(F)(F)F)C(F)(F)F)cc1
    4.7	-4.0	.	.	5.0	3405	-19.1
(18) Cc1nnsc1S(=O)(=O)Cc1ccccc1C(F)(F)F
    3.6	-6.5	1.4	8.5	5.1	4255	-11.1
(19) CCc1c(-c2ccccc2)nc(N)c(C#N)c1-c1cccs1
    18.4	-1.6	6.5	-1.8	0.3	15997	5.5
(20) O=C(CN1CCc2cc3c(cc2C1)OCCCO3)Nc1ccc(S(=O)(=O)N2CCCC2)cc1
    -6.0	0.0	2.0	7.1	-7.0	6052	-3.8

3 of the compounds above, in markdown:
| no. | structure | RN4220 kill | BJeLR lethal | Mtb hypoxia inh | Mtb hypoxia inh growth | Sa ugtP lethal | Autofluor counter | PrP 5UTR inh |
| --- | --- | --- | --- | --- | --- | --- | --- | --- |
| 16 | CCCCn1c(N)c(N(CCOC)C(=O)c2cc(S(=O)(=O)N3CCOCC3)ccc2Cl)c(=O)[nH]c1=O | 4.3 | . | 6.8 | 3.8 | 6.9 | 3929 | -8.3 |
| 17 | COc1ccc(NC(=O)NC(C(F)(F)F)C(F)(F)F)cc1 | 4.7 | -4.0 | . | . | 5.0 | 3405 | -19.1 |
| 18 | Cc1nnsc1S(=O)(=O)Cc1ccccc1C(F)(F)F | 3.6 | -6.5 | 1.4 | 8.5 | 5.1 | 4255 | -11.1 |

Following part.
Each structure is followed by: RN4220 kill	BJeLR lethal	Mtb hypoxia inh	Mtb hypoxia inh growth	Sa ugtP lethal	Autofluor counter	PrP 5UTR inh
(21) Cc1ccc(OC(=O)c2ccc(Cl)c([N+](=O)[O-])c2)cn1
    4.7	2.1	-5.1	-0.1	6.9	3544	-10.2
(22) CCCCn1ccnc1C(=O)c1cccc(S(=O)(=O)N2CC(C)CC(C)C2)c1 (stereo not drawn)
    4.9	-8.1	7.5	0.0	-10.5	16271*	-5.3
(23) COC(=O)c1ccccc1NC(=O)Nc1ccc2c(c1)OCO2
    4.0	-2.2	5.2	11.4	1.5	4171	-14.2
(24) COc1cc(C)c(C(N)=O)c(OC)n1
    1.5	1.8	9.1	12.8	-1.2	5474	-27.8
(25) O=C1C(C=NCc2ccccn2)=C(O)c2ccccc21
    1.4	-8.1	3.6	12.6	3.5	9556	-76.7
(26) CCc1ccc(N(CC(=O)NCc2cccnc2)S(=O)(=O)c2ccccc2)cc1
    0.6	5.1	-5.4	4.9	2.4	6409	-1.4
(27) FC(F)(F)c1nc2ccccc2nc1N/N=C/c1ccc(Cl)cc1
    .	5.1	.	.	.	2620	10.7
(28) O=C(NCCCCNC(=O)C1CCCC1)C1CCCC1
    0.6	-3.1	-4.3	6.7	-1.9	22858*	-15.6
(29) O=C1CC(C(=O)N(c2ccccc2)C(C(=O)NC2CCCC2)c2ccncc2)CS1 (stereo not drawn)
    -0.4	.	7.6	8.5	12.5	3410	-15.1
(30) CN(NS(=O)(=O)c1ccc(Cl)cc1)c1cnn(C)c(=O)c1Cl
    6.9	-5.0	-9.9	1.2	7.4	5381	-9.2
(31) Cn1c(COc2ccc(F)cc2)nc2ccccc21
    2.1	13.1	4.3	18.4	4.9	3257	-73.9
(32) CCN(CC)CCN(Cc1cc2cc(C)ccc2[nH]c1=O)C(=S)Nc1ccccc1
    -0.7	-2.7	4.7	3.0	4.3	4895	-16.8
(33) Cc1ccccc1NC(=O)COC(=O)c1cc(S(=O)(=O)N2CCOCC2)ccc1C
    3.3	.	32.5*	70.6*	-0.9	8346	-25.4
(34) NC(=O)CC(NC(=O)Cc1ccc(Br)cc1)c1ccc(NCCc2ccc(Cl)cc2)c([N+](=O)[O-])c1 (stereo not drawn)
    .	-5.6	.	.	.	3096	-8.9
(35) CC(C)(C)NC(=O)CSc1nc(O)cc(=O)n1-c1ccccc1
    0.9	11.7	5.7	0.6	2.2	6655	-13.5
(36) CCCCS(=O)(=O)Nc1ccc2ncn(C)c(=O)c2c1
    8.7	-2.5	15.8	3.6	0.1	10473	-18.8
(37) O=C(Oc1coc(CSc2ncccn2)cc1=O)c1ccc(Br)o1
    -8.9	-0.9	-7.7	-0.8	-4.3	9214	-6.9
(38) O=C(NC1CCN(C(=O)NCc2ccccc2)CC1)c1cccc(F)c1
    2.0	-10.4	9.9	-2.3	-4.4	4382	-1.3
(39) CCOc1ccc(NC(=O)c2c(OC)cccc2OC)cc1
    5.7	-3.3	15.5	11.6	-3.0	4213	1.5
(40) Cc1ccc2c(c1)CNc1ccccc1O2
    12.6	-0.2	18.0	14.7	4.4	3151	-27.3
(41) Cc1nnc(SCCCn2c(N3CCCCC3)nc3c2c(=O)[nH]c(=O)n3C)s1
    -1.4	-5.4	-5.6	4.1	-6.8	20721*	-29.5
(42) Cc1onc(-c2ccccc2Cl)c1C(=O)Nc1ccc(-c2nnc3n2CCCCC3)cc1
    1.5	-5.5	.	.	2.7	3524	1.3
(43) O=C(Nc1ccccc1)C1CCN(C(=O)c2ccccc2)CC1
    5.7	-4.1	.	.	-2.3	4599	3.4
(44) O=C(Nc1ccccc1Cc1ccccc1)c1ccccc1NS(=O)(=O)c1ccc(Cl)s1
    .	31.9	.	.	.	8124	-16.8
(45) Cn1cnnc1SCC(=O)NCCc1ccc(Cl)cc1Cl
    2.8	-2.2	0.2	3.7	0.1	4585	-3.1
(46) CCOc1ccc(/C=N/Nc2nncc(-c3ccccc3)n2)cc1OC
    .	1.3	.	.	.	4223	-4.4
(47) O=C1CC(N2CCN(c3ccc(F)cc3)CC2)C(=O)N1c1ccc2c(c1)OCO2 (stereo not drawn)
    0.2	-6.7	-9.4	-7.4	4.5	2611	-29.0
(48) CCN(CC)S(=O)(=O)c1ccc(Cl)c(C(=O)Oc2cccnc2)c1
    0.6	3.5	-4.6	7.8	-3.0	4134	6.3
(49) COc1cccc(NC(=O)CN(C)C(=O)c2cc(CN3C(=O)c4ccccc4C3=O)ccc2OC)c1
    -3.7	.	-4.8	4.8	-6.5	3484	2.1
(50) CCOC(=O)C(C(=O)OCC)N(C#N)c1nc(C)cc(C)n1
    0.5	3.9	2.7	3.2	-1.1	5781	-22.8
(51) CCOC(=O)N/N=C(\C)c1ccc(Oc2ncccn2)cc1
    .	1.9	.	.	.	3876	-9.1
(52) COC(=O)C(=NNc1ccccc1C)Sc1nnc(C(O)c2ccccc2)n1-c1ccccc1 (stereo not drawn)
    2.4	.	8.4	1.8	7.8	.	.
(53) CCO[C@H]1OC(C(=O)NC2CC2)=C[C@@H](C2CC2)[C@@H]1CCCO
    .	-0.9	.	.	.	3887	-12.6
(54) CC(NC(=O)CSCc1ccc(Br)cc1)c1ccccc1 (stereo not drawn)
    3.9	3.7	16.2	12.6	-1.4	3766	-28.6
(55) CN(C)C(CNc1nnnn1-c1ccccc1)c1ccco1 (stereo not drawn)
    4.2	1.3	6.1	7.9	-4.4	20446*	-26.9
(56) CCN(CC)CCNC(=O)CCc1nn(C)c(=O)c2ccccc12
    4.2	-6.6	12.9	6.3	-2.5	3414	-18.0
(57) Nc1n[nH]c(-c2ccccc2)c1-c1ccccc1
    4.4	11.3	3.0	2.9	8.5	6046	-19.1
(58) Cc1nnc(SC(C)C(=O)Nc2nccs2)s1 (stereo not drawn)
    4.8	.	11.0	0.5	7.2	4417	-8.9
(59) CCOC(=O)NN=C(C)/C=C/c1ccccc1
    2.9	.	-7.7	-2.8	4.4	.	.
(60) Cn1c(=N)n(CC(=O)c2ccccc2)c2ccccc21
    1.5	-3.8	11.4	8.8	-5.5	3280	.
(61) C/C(=N\NC(=O)c1ccccc1F)c1ccc(C#N)cc1
    .	-17.9	.	.	.	3970	-50.3
(62) O=[N+]([O-])c1ccc(Sc2ncccn2)c([N+](=O)[O-])c1
    20.8	-3.2	4.7	2.5	5.0	4215	-30.6
(63) O=C1CC(c2ccccc2)CC(O)=C1C=Nc1cccc(Cl)c1 (stereo not drawn)
    3.7	-8.4	13.1	0.5	7.2	2692	-14.5
(64) Cc1ccc(Cc2c(C)nc3nc(SCC(=O)NCCCN4CCOCC4)nn3c2C)cc1
    3.5	-2.1	14.8	4.5	2.6	4442	-36.3
(65) CN(C)CCNC(=O)/C(=C/c1ccc(-c2cccc(Cl)c2)o1)NC(=O)c1ccccc1
    2.6	-13.1	8.1	-9.6	2.0	2203	-16.8
(66) Cc1ccc(C)c(NC(=O)COC(=O)Cc2ccsc2)c1
    4.0	1.6	4.8	1.1	0.3	3276	-10.6
(67) CC1CCN(C(=O)CCNC(=O)Cn2cnc3sc4c(c3c2=O)CCCC4)CC1
    0.8	12.0	1.8	0.1	10.7	3480	6.6
(68) C=CCSC1=C(C#N)C(c2ccccc2C)CC(=O)N1 (stereo not drawn)
    0.7	-2.9	.	.	2.6	4246	-15.3
(69) CCN(CC)S(=O)(=O)c1ccc(N2CCCC2)c(NC(=O)Cc2cc(OC)c(OC)c(OC)c2)c1
    2.5	-12.0	7.2	-0.4	4.2	4613	-20.5

Source: PubChem
